TSHR agonist: qHTS Assay for Agonists of the Thyroid Stimulating Hormone Receptor; HEK293-CNG-TSHR cells (CNG channel as cAMP sensor), membrane potential dye, cAMP; hit rate 0.48% among 73,000; Potency, µM (titrated, usually from 57.1 µM), for the others: at the top dose activation, most hits filed as activators; active = well fitted activation curve of enough size with the parental cells flat; inconclusive = any curve in the parental cells; inactive = parental cells flat and receptor cells flat or falling; also: % of control where 0% means no effect; weak receptor curves with flat parental cells got no call and are not listed
Target sequence (P16473 whole entry, looked up): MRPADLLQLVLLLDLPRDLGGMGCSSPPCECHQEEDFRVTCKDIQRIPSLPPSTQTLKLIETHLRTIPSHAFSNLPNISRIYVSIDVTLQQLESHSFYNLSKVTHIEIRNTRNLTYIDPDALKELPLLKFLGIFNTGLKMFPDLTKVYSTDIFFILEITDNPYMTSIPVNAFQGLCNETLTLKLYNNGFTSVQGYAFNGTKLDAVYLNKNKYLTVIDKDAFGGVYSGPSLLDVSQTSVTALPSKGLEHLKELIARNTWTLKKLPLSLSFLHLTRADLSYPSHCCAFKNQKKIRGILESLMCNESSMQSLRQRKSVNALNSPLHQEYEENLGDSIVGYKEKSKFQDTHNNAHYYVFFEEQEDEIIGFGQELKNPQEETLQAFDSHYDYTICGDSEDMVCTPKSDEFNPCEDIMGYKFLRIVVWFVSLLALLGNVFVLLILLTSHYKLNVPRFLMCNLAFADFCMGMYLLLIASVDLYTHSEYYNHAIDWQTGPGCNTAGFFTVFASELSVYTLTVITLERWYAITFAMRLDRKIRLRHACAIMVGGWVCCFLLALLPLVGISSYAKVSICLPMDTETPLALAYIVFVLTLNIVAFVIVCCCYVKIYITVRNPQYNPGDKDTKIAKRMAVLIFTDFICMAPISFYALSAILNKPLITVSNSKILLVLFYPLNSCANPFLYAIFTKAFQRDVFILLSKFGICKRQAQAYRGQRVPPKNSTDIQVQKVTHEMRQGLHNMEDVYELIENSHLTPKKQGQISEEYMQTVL
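HEK 293 cells stably expressing TSHR and a cAMP-gated CNG channel; parental CNG-only cells as counterscreen. Cells preloaded 60 min with membrane potential dye plus 100 uM RO 20-1724, then compound 30 min; fluorescence read at 590 nm.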
AID923: qHTS Assay for Allosteric/Competitive Inhibitors of Caspase-1: Spectroscopic Profiling in AFC Spectral Region; compound fluorescence, AFC spectral region (405/520 nm); almost no hit is shown here; Potency, µM (highest dose often 57.5 µM), inactives show top-dose fluorescence increase, most hits filed as activators; hit rate 1.1% among 75,000; active = well fitted activation curve with a large enough effect; inconclusive = small, poorly fitted or top-dose-only effect;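 also: 0% is about no effect; scaled to a free AFC standard on each plate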
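Compound autofluorescence profiled at 405 nm ex/520 nm em during kinetic caspase 1 run (50 nM enzyme, 5 uM Ac-WEHD-AFC, HEPES pH 7.5, 10 mM DTT). Titration up to 57 uM; baseline from regression intercept, normalized to AFC standard curve.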
* hit, by the source's call; ? = inconclusive; . = not tested or not shown; [ ] = dose if it differs, or a comment. Potency is read from the fitted curve at half-maximal effect. These rows are one share of the data; the hit share may differ from the screen's.

Screens in order: TSHR agonist	AID923
[1] CC1/C=C/C=C/C=C/C=C/C=C/C=C/C=C/C(OC2OC(C)C(O)C(N)C2O)CC2O[C@@](O)(CC(O)CC(O)C(O)CCC(O)CC(O)CC(=O)OC(C)[C@H](C)C1O)CC(O)C2C(=O)O (stereo not given in full)
  .	18.3%
[2] COc1cccc(OC)c1OCCNCC1COc2ccccc2O1 (stereo not given)
  .	1.6%
[3] CCCCC(=O)Oc1ccccc1C(=O)O
  .	-1.2%
[4] CC(C)[C@H]1CC[C@@H](C)C[C@H]1O
  .	3.4%
[5] Clc1nccc2c1ccc1ccccc12
  .	-1.4%
[6] CC(N=C(NC#N)Nc1ccncc1)C(C)(C)C (stereo not given)
  .	-1.1%
[7] CC(=O)OC1CC(OC(C)=O)[C@]2(C)C(CC(OC(C)=O)[C@]3(C)C2CC[C@@]2(C)C(c4ccoc4)OC(=O)C4O[C@]432)C1(C)C (stereo not given in full)
  .	-2.0%
[8] FC(F)(F)c1ccc(CN2C[C@@H]3C(c4ccccc4)C4(c5cccnc5)CC3(C4)[C@H]2c2ccccc2)cc1 (stereo not given in full)
  .	-1.3%
[9] CC(=O)OC1CC[C@@]2(C)C(CC[C@@]3(C)C2CC=C2C4CC(C)(C)CC[C@]4(C)CC[C@@]23C)C1(C)C (stereo not given in full)
  .	1.3%
[10] COc1ccc2c(c1)[C@]1(C)CCC(=O)C[C@H]1CC2
  .	2.4%
[11] COc1ccccc1-c1coc2cc(O)ccc2c1=O
  .	3.2%
[12] CN(C)/C=N/c1cc(=O)[nH]c(=O)n1C
  .	-3.4%
[13] CON
  .	-2.4%
[14] c1ccc2c(Cc3c[nH]c4ccccc34)c[nH]c2c1
  .	-1.8%
[15] CC(=O)OC1CC[C@]2(C)C(=CCC3C4CCC(C(C)CCCC(C)C)[C@]4(C)CCC32)C1 (stereo not given in full)
  .	0.3%

Looked up one by one from the list above (two):
Screens in order: TSHR agonist	AID923
[3] CCCCC(=O)Oc1ccccc1C(=O)O
  .	-1.2%
[1] CC1/C=C/C=C/C=C/C=C/C=C/C=C/C=C/C(OC2OC(C)C(O)C(N)C2O)CC2O[C@@](O)(CC(O)CC(O)C(O)CCC(O)CC(O)CC(=O)OC(C)[C@H](C)C1O)CC(O)C2C(=O)O (stereo not given in full)
  .	18.3%

(list continues)
Screens in order: TSHR agonist	AID923
[16] C[Si](C)(C)C#Cc1ccccc1NC(=S)Nc1ccccc1
  .	0.7%
[17] COC(=O)c1c(NC(=O)c2ccco2)sc2c1C(C(=O)OC)CC2 (stereo not given)
  .	4.4%
[18] CC1CCCC(NC(=O)c2ccc(CNc3c(N4CCCC4)c(=O)c3=O)cc2)C1C (stereo not given)
  .	-4.8%
[19] O=C(O[C@@H]1Cc2c(O)cc(O)cc2OC1c1ccc(O)c(O)c1)c1cc(O)c(O)c(O)c1 (stereo not given in full)
  .	1.2%
[20] O=C(O)COc1c(F)c(F)c(C(F)(F)F)c(F)c1F
  .	4.8%
[21] Brc1ccc(-c2noc(CCc3ccccc3)n2)o1
  .	1.5%
[22] Cc1cc(C)nc(NC2=NCC(=O)N2c2ccccc2Br)n1
  .	0.0%
[23] COC(=O)c1ccc(C23CC4(C2)[C@H](CN(Cc2cccnc2)[C@@H]4c2ccccc2)C3c2ccc(C(F)(F)F)cc2)cc1 (stereo not given in full)
  .	-2.5%
[24] CC(=O)OCC(=O)[C@@]1(O)CCC2C3CC[C@H]4CC(O)CC[C@@]4(C)C3C(=O)C[C@]21C (stereo not given in full)
  .	-2.5%
[25] COC(=O)C/C=C\[C@@H](C)[C@@H](/C=N\O[C@@H](C)c1cc(-c2c(C)cc(C)cc2C)no1)OC
  .	-6.6%[11.5 µM]
[26] COC(=O)[C@@H]1C[C@@]2(O)[C@H](O)[C@H](O)[C@H](O)C[C@H]2N1Cc1ccc(C)s1
  .	1.6%
[27] COc1ccc(-c2nc(CSCC(=O)N3CCN(C4CCCCC4)CC3)c(C)o2)cc1OC
  .	1.4%
[28] COC1C=CC23c4cc5c(cc4CN(CC2O)C3C1)OCO5 (stereo not given)
  .	1.0%
[29] COc1cc2c(cc1OC)C1C(=O)c3ccc4c(c3OC1CO2)C=CC(C)(C)O4 (stereo not given)
  .	0.9%
[30] Cc1onc(-c2ccccc2)c1C(=O)NC1C(=O)N2C(C(=O)O)C(C)(C)S[C@@H]12 (stereo not given in full)
  .	1.3%

Entries of single compounds as entered above:
Record of `O=C(O[C@@H]1Cc2c(O)cc(O)cc2OC1c1ccc(O)c(O)c1)c1cc(O)c(O)c(O)c1` (stereo not given in full) : TSHR agonist = .; AID923 = 1.2%
Record of `Brc1ccc(-c2noc(CCc3ccccc3)n2)o1` : TSHR agonist = .; AID923 = 1.5%

Next structures
Screens in order: TSHR agonist	AID923
[31] CCS(=O)(=O)N1CCN(C(C)CCc2ccccc2)CC1 (stereo not given)
  .	0.6%
[32] C=CCNC(=O)C1CCN(S(=O)(=O)c2ccc(Br)cc2)CC1
  .	-0.9%
[33] O=C(/C=C/c1ccc(O)c(O)c1)OCCc1ccccc1
  .	-1.1%
[34] CCOc1ccc(-c2cc(CCCC(=O)NCc3ccco3)no2)cc1
  .	0.8%
[35] NC(=O)NCC1CC1
  .	0.8%
[36] Cc1[nH]c(C)c(Cl)c(=O)c1Cl
  .	-0.8%
[37] COC(=O)c1ccc(C23CC4(C2)[C@H](CN(Cc2ccc(C(F)(F)F)cc2)[C@@H]4c2ccccc2)C3c2ccc(C(F)(F)F)cc2)cc1 (stereo not given in full)
  .	3.6%
[38] COc1cccc(O)c1O
  .	-0.9%
[39] O=C(Cn1cc2c(n1)CCCC2)Nc1ccccc1Cl
  .	-2.4%
[40] COc1ccc(-c2nc(C#N)c(N3CCN(c4ccccc4)CC3)o2)cc1
  .	0.0%
[41] C=CCCCCCCCCCCCc1ccco1
  .	5.3%
[42] NC(C(=O)O)C(O)C(=O)O (stereo not given)
  .	-2.6%
[43] CS(C)(=O)=O
  .	-1.8%
[44] c1ccc2c(c1)Cc1cc3cc4c(cc3nc1-2)OCO4
  .	6.8%
[45] CC(C)C[C@@H](CC(=O)N[C@@H](CCC(=O)O)CC(=O)O)NC(=O)[C@@H]1CNCC[C@H]1NC(=O)C[C@@H](NC(=O)C[C@H](CO)NC(=O)[C@@H]1CCCC[C@H]1N)C(C)C
  10.0%	.
[46] COC(=O)[C@@H]1C[C@H]1[C@@H](NC(=O)OCc1ccccc1)c1ccccc1
  ?	.
[47] CC(C)[C@@H](CC(=O)N[C@@H]1CCNC[C@H]1C(=O)N[C@H](CC(=O)N[C@@H](CCC(=O)O)CC(=O)O)Cc1c[nH]c2ccccc12)NC(=O)C[C@H](CO)NC(=O)[C@@H]1CCCC[C@H]1N
  7.9%	.
[48] CC(C)C[C@@H](CC(=O)N[C@@H](CCC(=O)O)CC(=O)O)NC(=O)[C@@H]1CCCC[C@H]1NC(=O)C[C@@H](NC(=O)C[C@H](CO)NC(=O)[C@@H]1CCCC[C@H]1N)C(C)C
  ?	.
[49] NCCC[C@@H](CC(=O)N[C@@H]1CCNC[C@H]1C(=O)N[C@H](CC(=O)N[C@@H](CCC(=O)O)CC(=O)O)Cc1ccccc1)NC(=O)C[C@H](Cc1c[nH]c2ccccc12)NC(=O)[C@@H]1CCCC[C@H]1N
  ?	.
[50] CC(C)[C@@H](CC(=O)N[C@@H]1CCNC[C@H]1C(=O)N[C@H](CC(=O)N[C@@H](CCC(=O)O)CC(=O)O)Cc1c[nH]c2ccccc12)NC(=O)C[C@H](CO)NC(=O)[C@@H]1CNCC[C@H]1N
  8.8%	.
[51] CC(C)C[C@@H](CC(=O)N[C@@H](CCCN)CC(=O)N[C@@H]1CCNC[C@H]1C(=O)N[C@H](CC(=O)N[C@@H](CCC(=O)O)CC(=O)O)Cc1ccccc1)NC(=O)[C@@H]1CNCC[C@H]1N
  ?	.
[52] NCCC[C@@H](CC(=O)N[C@@H]1CCNC[C@H]1C(=O)N[C@H](CC(=O)N[C@@H](CCC(=O)O)CC(=O)O)Cc1c[nH]c2ccccc12)NC(=O)C[C@H](CO)NC(=O)[C@@H]1CNCC[C@H]1N
  9.2%	.
[53] CC(C)C[C@@H](CC(=O)N[C@H](CC(=O)N[C@@H]1CCCC[C@H]1C(=O)N[C@H](CC(=O)N[C@@H](CCC(=O)O)CC(=O)O)Cc1c[nH]c2ccccc12)C(C)C)NC(=O)[C@@H]1CCCC[C@H]1N
  0.5%	.
[54] CC(C)C[C@@H](CC(=O)N[C@@H](CCCN)CC(=O)N[C@@H]1CCNC[C@H]1C(=O)N[C@H](CC(=O)N[C@@H](CCC(=O)O)CC(=O)O)CC(C)C)NC(=O)[C@@H]1CNCC[C@H]1N
  2.8%	.
[55] NCCC[C@@H](CC(=O)N[C@@H]1CCCC[C@H]1C(=O)N[C@H](CC(=O)N[C@@H](CCC(=O)O)CC(=O)O)Cc1ccccc1)NC(=O)C[C@H](Cc1ccccc1)NC(=O)[C@@H]1CNCC[C@H]1N
  4.7%	.
[56] CC(C)[C@@H](CC(=O)N[C@@H]1CCNC[C@H]1C(=O)N[C@H](CC(=O)N[C@@H](CCC(=O)O)CC(=O)O)Cc1c[nH]c2ccccc12)NC(=O)C[C@H](Cc1c[nH]c2ccccc12)NC(=O)[C@@H]1CCCC[C@H]1N
  ?	.
[57] CC(C)C[C@@H](CC(=O)N[C@H](CC(=O)N[C@@H]1CCCC[C@H]1C(=O)N[C@H](CC(=O)N[C@@H](CCC(=O)O)CC(=O)O)CC(C)C)C(C)C)NC(=O)[C@@H]1CNCC[C@H]1N
  6.0%	.
[58] CC(C)[C@@H](CC(=O)N[C@@H]1CCCC[C@H]1C(=O)N[C@H](CC(=O)N[C@@H](CCC(=O)O)CC(=O)O)Cc1ccccc1)NC(=O)C[C@H](Cc1c[nH]c2ccccc12)NC(=O)[C@@H]1CCCC[C@H]1N
  7.7%	.
[59] CCCCCCN(C(=O)CCCCCN1C(=O)NC(c2ccc(-c3ccccc3)cc2)C(C(=O)OCc2ccccc2)=C1C)C(C(=O)NCCCC)c1ccc(OCC(=O)OC)c(C(=O)OC)c1 (stereo not given)
  2.6%	.
[60] CC(C)C[C@@H](CC(=O)N[C@H](CC(=O)N[C@@H]1CCNC[C@H]1C(=O)N[C@H](CC(=O)N[C@@H](CCC(=O)O)CC(=O)O)Cc1c[nH]c2ccccc12)C(C)C)NC(=O)[C@@H]1CCCC[C@H]1N
  ?	.
[61] CC(C)C[C@@H](CC(=O)N[C@@H](CCCN)CC(=O)N[C@@H]1CCCC[C@H]1C(=O)N[C@H](CC(=O)N[C@@H](CCC(=O)O)CC(=O)O)CC(C)C)NC(=O)[C@@H]1CNCC[C@H]1N
  14.3%	.

By substructure: those above containing a thiophene ring, fused or not (two)
Screens in order: TSHR agonist	AID923
[17] COC(=O)c1c(NC(=O)c2ccco2)sc2c1C(C(=O)OC)CC2 (stereo not given)
  .	4.4%
[26] COC(=O)[C@@H]1C[C@@]2(O)[C@H](O)[C@H](O)[C@H](O)C[C@H]2N1Cc1ccc(C)s1
  .	1.6%
